Screening data (PubChem BioAssay)
LASV entry inh – blocks Lassa virus binding to or entry into cells. Lassa virus pseudotype entry inhibition, cell reporter; control for the full effect not named in the record. Potency, µM (series often up to 37.9 µM), inactives show top-dose activity change, negative = inhibition, usual class: inhibitors. 1.2% of 300,000 active; active means well fitted inhibition curve with a large enough effect; inconclusive means small, poorly fitted or top-dose-only effect, or effect the other way; inactive means flat fitted curve, though single readings scatter; tested in HEK293 cells; note: % is set by controls: 0 for no effect and ±100 for the full control effect; nearly all actives have a fitted effect of over 50% in size; luciferase read-out
NS1 inh – influenza NS1 inhibition. S. cerevisiae slowed by influenza A NS1, growth recovery by OD600. Potency, µM (highest dose often 46.1 µM), without a hit: at the top dose activity, positive = more growth. 0.4% of 270,000 active; note: actives are rising curves; nearly all actives have a fitted effect of over 50% in size
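Compounds were scored for reversing the slow growth caused by influenza A NS1 in S. cerevisiae, measured by optical density at 600 nm. Assay medium contained 2% galactose at pH 6.0; NS1-free yeast of the same strain were the positive control.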
Cruzain noTriton – inhibitors of Trypanosoma cruzi cruzain without detergent; purified cruzain, Z-FR-AMC fluorescence, no detergent; 2.3% of 200,000 active; Potency, µM, without a hit: max response, negative = inhibition, hits mostly inhibitors; P25779; AID 1476; active = well fitted curve in the direction sought with a large enough effect; inconclusive = small, poorly fitted or top-dose-only effect, or another doubt; inactive = no such curve, though single readings can be large; an effect the other way counts as inactive or inconclusive;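 note: plate controls were enzyme without inhibitor for no effect and buffer without enzyme for full effect; nearly all actives have a fitted effect of over 40% in size; top concentration of the series not given in the record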
Target sequence (P25779 123-467 limits assumed): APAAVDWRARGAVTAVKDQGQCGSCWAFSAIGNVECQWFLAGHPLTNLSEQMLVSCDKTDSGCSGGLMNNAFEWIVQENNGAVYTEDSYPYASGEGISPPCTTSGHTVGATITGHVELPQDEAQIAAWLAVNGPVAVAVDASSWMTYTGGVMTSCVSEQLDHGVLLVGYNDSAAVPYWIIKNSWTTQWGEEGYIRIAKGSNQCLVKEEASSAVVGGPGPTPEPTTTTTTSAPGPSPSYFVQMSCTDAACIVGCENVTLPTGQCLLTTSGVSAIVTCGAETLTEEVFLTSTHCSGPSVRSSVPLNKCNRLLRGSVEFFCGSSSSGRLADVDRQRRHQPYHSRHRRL
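Detergent-free condition (0.00005% Triton X-100) in acetate buffer pH 5.5 with DTT. 1.5 nM enzyme and compound were pre-mixed 15 min, then 2 uM Z-FR-AMC substrate added; reaction progress from fluorescence change between first and third reads (60 s).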
MARV entry inh – Marburg virus entry inhibition; Marburg virus pseudotyped entry inhibition, cell reporter; control for the full effect not named in the record; about a third of the inactives were read at about 46 µM; Potency, µM (top dose mostly 37.8 µM), without a hit: top-dose activity change, negative = inhibition, actives largely listed as inhibitors; 1.8% of 300,000 active; AID 540276; active = well fitted inhibition curve with a large enough effect; inconclusive = small, poorly fitted or top-dose-only effect, or effect the other way; inactive = flat fitted curve, though single readings scatter; tested in HEK293 cells; about a fifth of its hits are not listed in these tables; note: % is set by controls: 0 for no effect and ±100 for the full control effect; luciferase read-out
RE007 growth inh – less growth of the S. pombe RE007 Vpr strain. S. pombe RE007 Vpr strain, BacTiter-Glo ATP luminescence, 24 h; control for the full effect not named in the record. Potency, µM (series often up to 92.2 µM), for inactives: at the top dose activity change, negative = less growth. 0.21% of 360,000 active. AID 651644; active = well fitted falling curve with a large enough effect; inconclusive = small, poorly fitted or top-dose-only effect; inactive = no such curve, though single readings can be large or run the other way;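 note: % is set by controls: 0 for no effect and ±100 for the full control effect; nearly all actives have a fitted effect of over 50% in size; the assay follows cell death caused by Vpr and the record does not say whether a fall means rescue or toxicity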
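Fission yeast RE007 carrying one integrated HIV-1 vpr copy, seeded at OD 0.01 in PMG+AL medium with 23 nL pinned compound. Grown 24 h at 30 degrees; viability read by BacTiter-Glo luminescence after 5 min.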
SARS PLP yeast – SARS-CoV PLP inhibition in yeast. AID 485353. 0.19% of 330,000 active. S. cerevisiae expressing SARS-CoV PLpro, growth rescue; control for the full effect not named in the record. Potency, µM (series often up to 32.9 µM), for the others: at the highest dose activity, positive = growth rescue; note: 0% is about no effect; nearly all actives have a fitted effect of over 55% in size; growth read by luminescence after 48 h
Cruzain Triton – blocks cruzain activity in presence of Triton detergent | P25779 | purified cruzain, Z-FR-AMC fluorescence, 0.01% Triton | Potency, µM, for inactives: max response, negative = inhibition, usual class: inhibitors | 0.43% of 200,000 active; active = well fitted curve in the direction sought with a large enough effect; inconclusive = small, poorly fitted or top-dose-only effect, or another doubt; inactive = no such curve, though single readings can be large; an effect the other way counts as inactive or inconclusive;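 note: plate controls were neutral wells for no effect and buffer without enzyme for full effect; nearly all actives have a fitted effect of over 40% in size; top concentration of the series not given in the record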
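Steps: dispense cruzain (1.5 nM final) in acetate buffer pH 5.5 with DTT and 0.01% Triton X-100; pin-transfer compounds; incubate 15 min RT; add Z-FR-AMC (2 uM final); read fluorescence every 30 s, using the 60 s intensity change.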
StopGo reporter – FMDV 2A StopGo reporter, luciferase signal | Potency, µM (series often up to 57.9 µM), for inactives: top-dose signal change, negative = less light | human cells with a luciferase reporter of 2A StopGo recoding; control for the full effect not named in the record | 1.2% of 410,000 active | AID 1159524; active = well fitted falling curve with a large enough effect; inconclusive = small, poorly fitted or top-dose-only effect; inactive = no such curve, though single readings can be large or run the other way; tested in HEK293T cells; note: % is set by controls: 0 for no effect and ±100 for the full control effect; nearly all actives have a fitted effect of over 45% in size; luciferase light after 4 h
* = called active by the depositor; [ ] = dose if it differs, or a comment. Unless noted, calls come from the whole dose curve; as a rule, active means well fitted rising curve with a large enough effect; inconclusive means small, poorly fitted or top-dose-only effect; inactive means no such curve, though single readings can be large or run the other way. Potency is the fitted concentration of half-maximal effect.

What do the screens show for `CN(C)c1ccc(NC(=S)N2CCN(c3ncc(C(F)(F)F)cc3Cl)CC2)cc1`?
LASV entry inh: -17%; NS1 inh: -1%; MARV entry inh: inconclusive; RE007 growth inh: -21%; SARS PLP yeast: 0%; StopGo reporter: -7%

Results for O=C(O)CS(=O)CC(=O)Nc1cccc(C(F)(F)F)c1 (stereo unspecified) ?
LASV entry inh: 21%[46.1 µM]; NS1 inh: 3%; MARV entry inh: 5%[46.1 µM]; RE007 growth inh: -10%; SARS PLP yeast: 1%; StopGo reporter: -7%

Results for Cc1ccccc1C(=O)N(C)c1ccccc1C(=O)NCc1ccccc1 ?
LASV entry inh: 18%; NS1 inh: 2%; MARV entry inh: -12%; RE007 growth inh: 36%; SARS PLP yeast: 25%; StopGo reporter: -19%

Results for COc1cccc(/C=N/NC(=O)C[n+]2ccccc2)c1OC ?
LASV entry inh: 6%; NS1 inh: -6%; Cruzain noTriton: -11%; MARV entry inh: -7%; RE007 growth inh: 2%; SARS PLP yeast: -8%; Cruzain Triton: -0.9%; StopGo reporter: -15%

How did COc1cccc2cc(-c3nc(-c4ccc(C)cc4)c(C)s3)c(=O)oc12 do in these assays?
LASV entry inh: -1%[46.1 µM]; Cruzain noTriton: 13%; Cruzain Triton: 0.5%; StopGo reporter: -20%

Results for O=C(CN1CCc2ccccc2C1)Nc1ccccc1N1CCCCCC1 ?
LASV entry inh: -29%; NS1 inh: -45%; Cruzain noTriton: -4%; MARV entry inh: 18µM*; RE007 growth inh: -22%; SARS PLP yeast: -11%; Cruzain Triton: -8.4%; StopGo reporter: inconclusive

Results for COc1ccc(S(=O)(=O)N2CCCCC2)cc1NC(=O)c1cnc(C)cn1 ?
LASV entry inh: -1%; MARV entry inh: 15%; RE007 growth inh: -16%; SARS PLP yeast: 0%; StopGo reporter: 12%

What do the screens show for `Cc1cc(=O)n2nc(N(C)CC(=O)NCc3ccccc3C)sc2n1`?
LASV entry inh: 11%[46.1 µM]; Cruzain noTriton: 4%; MARV entry inh: 22%[46.1 µM]; Cruzain Triton: -1.8%; StopGo reporter: -23%

How did N#CC(CCc1ccccc1[N+](=O)[O-])(CCc1ccccc1[N+](=O)[O-])C(N)=O do in these assays?
LASV entry inh: -22%; MARV entry inh: inconclusive; RE007 growth inh: 13%; StopGo reporter: 0%

How did CC1=NN(c2ccc(C)c(C)c2)C(=O)C1C(c1cccc(O)c1)C1C(=O)N(c2ccc(C)c(C)c2)N=C1C (stereo unspecified) do in these assays?
LASV entry inh: -12%; NS1 inh: 28%; Cruzain noTriton: -8%; MARV entry inh: -33%; RE007 growth inh: -26%; SARS PLP yeast: -3%; Cruzain Triton: -0.8%; StopGo reporter: -25%

How did O=C(COC(=O)/C=C/c1ccccc1[N+](=O)[O-])Nc1ccc(OCc2ccccc2)cc1 do in these assays?
LASV entry inh: 4%; NS1 inh: 14%; Cruzain noTriton: 25µM*; MARV entry inh: inconclusive; RE007 growth inh: 8%; SARS PLP yeast: 0%; Cruzain Triton: 3.0%; StopGo reporter: 34%[activator]

Results for COc1nc(C)ccc1-c1noc(-c2ccncc2)n1 ?
LASV entry inh: 3%; NS1 inh: 0%; Cruzain noTriton: -4%; MARV entry inh: -1%; RE007 growth inh: 6%; SARS PLP yeast: 2%; Cruzain Triton: 2.7%; StopGo reporter: 70%[activator]

What do the screens show for `Cc1nn(CCC#N)c(NC(=O)c2ccccc2)c1P(=O)(Nc1ccc(Br)cc1)N1CCOCC1` (stereo unspecified)?
LASV entry inh: 5%[46.1 µM]; MARV entry inh: inconclusive; RE007 growth inh: 11%; SARS PLP yeast: 0%; StopGo reporter: 14%

What do the screens show for `CCc1ccc(NC(=O)CN(CC(=O)Nc2ccc(CC)cc2)CC(C)O)cc1` (stereo unspecified)?
NS1 inh: 2%; RE007 growth inh: 7%; SARS PLP yeast: -1%; StopGo reporter: 4%

How did CCN(CC)S(=O)(=O)c1ccc(C)c(NC(=O)COC(=O)CNC(=O)c2ccc(C(C)(C)C)cc2)c1 do in these assays?
LASV entry inh: -8%; NS1 inh: -17%; Cruzain noTriton: inconclusive; MARV entry inh: -8%; RE007 growth inh: 7%; SARS PLP yeast: 15%; Cruzain Triton: -8.8%; StopGo reporter: 25%

What do the screens show for `COCCSc1nnc(NC(=O)c2ccc(NC(=O)C(C)C)cc2)s1`?
NS1 inh: 1%; RE007 growth inh: -5%; SARS PLP yeast: 0%; StopGo reporter: 0%

What do the screens show for `Cc1ccc(C)c(NC(=O)CSc2nnc(C3CCCCC3)o2)c1`?
LASV entry inh: 7%; NS1 inh: -2%; MARV entry inh: -13%[46.1 µM]; RE007 growth inh: 15%; SARS PLP yeast: -18%; StopGo reporter: -8%

What do the screens show for `Cc1ccc(C(=O)CSc2cc(C)nc(SCC(=O)c3ccccc3)n2)cc1`?
LASV entry inh: inconclusive; NS1 inh: 0%; Cruzain noTriton: -2%; MARV entry inh: inconclusive; RE007 growth inh: 4%; SARS PLP yeast: -6%; Cruzain Triton: -3.7%; StopGo reporter: inconclusive

Results for S=C(Nc1ccc(Cl)cc1)NC1CC2CCC(C1)N2Cc1ccccc1 (stereo unspecified) ?
LASV entry inh: 0%; NS1 inh: -8%; MARV entry inh: inconclusive; RE007 growth inh: -2%; SARS PLP yeast: -1%; StopGo reporter: -25%

What do the screens show for `COc1ccc(N=Nc2cc(C)ccc2O)cc1`?
NS1 inh: 3%; RE007 growth inh: -21%; SARS PLP yeast: 0%; StopGo reporter: -25%

What do the screens show for `C=CCOc1ccc(/C=N/NC(=O)C(C)Sc2ccccn2)cc1OCC` (stereo unspecified)?
LASV entry inh: inconclusive; NS1 inh: -10%; Cruzain noTriton: -2%; MARV entry inh: -6%; RE007 growth inh: 1%; SARS PLP yeast: -2%; Cruzain Triton: -10%; StopGo reporter: -20%

What do the screens show for `COC(=O)/C(C#N)=C/c1ccc(OC(=O)c2ccccn2)cc1`?
LASV entry inh: 11%; NS1 inh: -36%; Cruzain noTriton: -5%; MARV entry inh: 5%; RE007 growth inh: -6%; SARS PLP yeast: -28%; Cruzain Triton: -6.2%; StopGo reporter: 13%

Results for CC(C)c1ccc(OCc2cc(=O)n3c4c(sc3n2)CCCC4)cc1 ?
LASV entry inh: 13%[46.1 µM]; Cruzain noTriton: -4%; MARV entry inh: -2%[46.1 µM]; Cruzain Triton: -0.5%; StopGo reporter: -5%

What do the screens show for `O=C(Nc1ccccc1F)c1ccc(CN2CCc3ccccc3C2)cc1`?
NS1 inh: -14%; RE007 growth inh: 4%; SARS PLP yeast: -7%; StopGo reporter: -8%

Among those listed so far, these have a Cl atom.
What do the screens show for `CN(C)c1ccc(NC(=S)N2CCN(c3ncc(C(F)(F)F)cc3Cl)CC2)cc1`?
LASV entry inh: -17%; NS1 inh: -1%; MARV entry inh: inconclusive; RE007 growth inh: -21%; SARS PLP yeast: 0%; StopGo reporter: -7%

Results for S=C(Nc1ccc(Cl)cc1)NC1CC2CCC(C1)N2Cc1ccccc1 (stereo unspecified) ?
LASV entry inh: 0%; NS1 inh: -8%; MARV entry inh: inconclusive; RE007 growth inh: -2%; SARS PLP yeast: -1%; StopGo reporter: -25%

(next part)
What do the screens show for `Cc1ccc(NC(=O)N2N=C(c3ccc(F)cc3)CC2c2ccc(F)cc2)cc1` (stereo unspecified)?
LASV entry inh: 4%; NS1 inh: 14%; Cruzain noTriton: 1.3µM*; MARV entry inh: -4%; RE007 growth inh: -19%; SARS PLP yeast: 2%; Cruzain Triton: 1.4%; StopGo reporter: -23%

Results for CCCCCCc1cc2cc(C(=O)OCC)c(=O)oc2cc1O ?
NS1 inh: -4%; RE007 growth inh: -17%; SARS PLP yeast: 1%; StopGo reporter: -17%

What do the screens show for `O=C(NCc1cccs1)C1CCCN1C(=O)Nc1ccccc1[N+](=O)[O-]` (stereo unspecified)?
LASV entry inh: 16%[46.1 µM]; NS1 inh: 13%; MARV entry inh: inconclusive; RE007 growth inh: -4%; SARS PLP yeast: -1%; StopGo reporter: -6%

What do the screens show for `CC(C)NC(=S)NN=C1CCC(c2ccccc2)CC1` (stereo unspecified)?
LASV entry inh: -7%; NS1 inh: -5%; MARV entry inh: inconclusive; RE007 growth inh: -6%; SARS PLP yeast: 10%; StopGo reporter: 7%

What do the screens show for `O=C(NCC1CCCC(CNC(=O)N2CCc3ccccc32)C1)N1CCc2ccccc21` (stereo unspecified)?
LASV entry inh: 7%; NS1 inh: 10%; Cruzain noTriton: inconclusive; MARV entry inh: 20%; RE007 growth inh: -11%; SARS PLP yeast: 5%; Cruzain Triton: -0.8%; StopGo reporter: -4%

How did CCOC(=O)C1=C(COC(=O)c2ccccc2OC(F)F)NC(=O)NC1C (stereo unspecified) do in these assays?
LASV entry inh: 1%; MARV entry inh: inconclusive; RE007 growth inh: 3%; SARS PLP yeast: 9%; StopGo reporter: -29%

How did O=C1NC(=S)N(c2ccc(Br)cc2)C(=O)/C1=C/N1CCN(C(=O)c2ccco2)CC1 do in these assays?
NS1 inh: -1%; RE007 growth inh: 2%; SARS PLP yeast: -1%; StopGo reporter: -19%

What do the screens show for `C#CCSc1nnc(-c2c[nH]c3ccccc23)n1C`?
NS1 inh: -16%; Cruzain noTriton: 4%; RE007 growth inh: -2%; SARS PLP yeast: 1%; Cruzain Triton: -1.0%; StopGo reporter: 0%

Results for c1ccc(Nc2nc(NCCN3CCOCC3)nc(Nc3ccccc3)n2)cc1 ?
LASV entry inh: -30%; NS1 inh: -5%; MARV entry inh: inconclusive; RE007 growth inh: -9%; SARS PLP yeast: -8%; StopGo reporter: -13%
